Screening results (PubChem BioAssay)
CSC inhib: blocks cancer stem cells. cancer stem cell-like cells viability, luminescence. inhibition, % at 7.5 µM. 300,000 tested, 1.1% active. AID 2717;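 active = mean at 75% or more and at least half the replicates too; inconclusive = mean and replicates disagree; tested in HMLE shEcad cells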;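 note: 0% = median of negative and 100% = median of positive control wells; the first replicate is given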
Yeast UUG start: alters start codon recognition fidelity in yeast; S. cerevisiae UUG-firefly luciferase reporter, luminescence/redox ratio; activity score, % at 18.7 µM; 350,000 tested, 0.13% active; AID 602363;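 active = replicate mean at a twofold rise or more, about +100% in these data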;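 note: firefly luciferase made from a UUG start codon reports start codon fidelity; reporter light over untreated wells divided by growth signal over untreated wells; some hits fall short of that in this replicate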
MT1-MMP act inh: inhibitors of human MT1-MMP activation; HT1080 RFP-PRO-GFP cells, GFP/RFP ratio fluorescence, overnight; percent of plate control window, DMSO zero; 360,000 tested, 0.061% active; P50281; GFP/RFP ratio change, % at 20 µM;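 active = GFP/RFP ratio change of at least 30% with cell ATP level not reduced by more than half and red fluorescence within 50% of control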; note: strong numbers were not always called active
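Read-out: GFP/RFP fluorescence ratio; Test system: RFP-PRO-GFP reporter HT1080 cells; Compound dosing: single-point 20 µM compound, 1% DMSO; Times: overnight compound exposure at 37 °C.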
Env fusion inh: inhibitors of HIV Env-mediated cell fusion; HeLa-JRFL Env/CEM21 cell fusion, luciferase; inhibition, % at 12.3 µM; 360,000 tested, 1.1% active; AID 651610;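 active = mean replicate inhibition score of at least 50 and every replicate individually at or above 50; inconclusive = only one of the two criteria met; inactive = mean below 50 and not all replicates reaching 50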;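 note: 0% = plate neutral controls and 100% = maraviroc near 300 nM; one replicate is shown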
eIF4H inh: inhibitors of RNA binding by human eIF4H; Q15056; eIF4H fluorescence polarization binding assay; inhibition, % at 35 µM; 290,000 tested, 0.94% active;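 active = 50% or more with normal probe brightness, or confirmed in later tests; inconclusive = above 50% with abnormal brightness, or retests that disagree; inactive = below 50% or failed in later tests; about a fifth of its hits are not listed in these tables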;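 note: calls also rest on retests at 20 µM and on dose response follow-up; 0% = protein and probe with vehicle and 100% = probe without protein; strong numbers were not always called active; many hits fall short of the cut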
PABP polyA inh: PABP-poly(A) binding inhibition; 290,000 tested, 1% active; P11940; PABP-poly(A) RNA binding, fluorescence polarization; inhibition, % at 35 µM;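 active = 50% or more with normal probe brightness, or confirmed in later tests; inconclusive = above 50% with abnormal brightness, or retests that disagree; inactive = below 50% or failed in later tests; about a fifth of its hits are not listed in these tables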;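 note: calls also rest on retests at 20 µM and on dose response follow-up; controls were probe without protein and protein plus probe with vehicle; some compounds called inactive have numbers as strong as hits; many hits fall short of the cut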
Target sequence (P11940 whole entry, looked up): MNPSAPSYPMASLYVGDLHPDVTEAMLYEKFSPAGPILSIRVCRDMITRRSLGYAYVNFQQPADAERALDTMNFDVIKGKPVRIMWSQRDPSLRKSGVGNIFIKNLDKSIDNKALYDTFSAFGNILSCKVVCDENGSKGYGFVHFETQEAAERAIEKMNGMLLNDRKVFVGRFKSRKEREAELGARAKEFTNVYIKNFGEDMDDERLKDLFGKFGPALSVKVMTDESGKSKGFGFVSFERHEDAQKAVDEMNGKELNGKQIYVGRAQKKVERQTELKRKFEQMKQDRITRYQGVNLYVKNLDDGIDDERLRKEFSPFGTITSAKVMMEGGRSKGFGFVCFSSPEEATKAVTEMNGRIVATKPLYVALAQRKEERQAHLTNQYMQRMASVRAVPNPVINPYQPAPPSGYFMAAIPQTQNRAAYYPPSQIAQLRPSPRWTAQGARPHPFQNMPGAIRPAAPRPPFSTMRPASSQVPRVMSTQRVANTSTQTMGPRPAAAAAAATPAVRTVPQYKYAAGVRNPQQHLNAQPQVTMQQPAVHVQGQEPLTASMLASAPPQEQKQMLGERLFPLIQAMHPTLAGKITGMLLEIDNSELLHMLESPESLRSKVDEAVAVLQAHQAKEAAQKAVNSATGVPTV
Rce1 inhib: yeast Ras-converting enzyme inhibition; AID 2563; Q03530; yeast membranes, quenched prenylated peptide cleavage fluorescence; 290,000 tested, 0.27% active; calls only;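 active = fall in fluorescence gain of 50% or more versus controls, with final raw signal at or below 3038400; inconclusive = same 50% fall but final raw signal above 3038400; inactive = fall in fluorescence gain under 50%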;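 note: plate controls were neutral control wells for no effect and wells lacking membranes for full effect; tested at 10 µM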
Target sequence (Q03530 whole entry, looked up): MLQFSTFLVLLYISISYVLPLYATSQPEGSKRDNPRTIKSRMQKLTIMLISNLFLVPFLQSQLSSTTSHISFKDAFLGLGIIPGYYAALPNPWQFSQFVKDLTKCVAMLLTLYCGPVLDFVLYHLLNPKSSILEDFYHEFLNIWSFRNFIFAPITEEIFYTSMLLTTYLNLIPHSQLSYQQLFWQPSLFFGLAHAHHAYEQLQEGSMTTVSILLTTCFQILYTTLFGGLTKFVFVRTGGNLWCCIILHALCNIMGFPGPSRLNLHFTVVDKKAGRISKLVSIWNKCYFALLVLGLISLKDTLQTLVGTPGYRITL
MT1-MMP act inh RFP: second read-out of MT1-MMP act inh, no call of its own (marks repeat the call); RFP signal change, %; measured here: RFP expression control read;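 0 = vehicle wells; hits needed this value within 50% of zero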
* hit, by the source's call; i = inactive; ? = inconclusive; · = no result given.

SMILES	CSC inhib	Yeast UUG start	MT1-MMP act inh	MT1-MMP act inh RFP	Env fusion inh	eIF4H inh	PABP polyA inh	Rce1 inhib
CCOc1ccc(C2/C(=C(\O)c3ccc4c(c3)OCCO4)C(=O)C(=O)N2CCN2CCOCC2)cc1OCC (centres undefined)	-7	-15	-2	-1	-7	-8	-3	i
CSc1ccc(Cl)c(C(=O)NCC(C)C)c1	-8	-1	-2	4	·	1	-2	i
CCOc1ccc(-c2cnc(N)n2C)cc1	-17	-29	6	3	-1	-3	-8	i
CC(C)(C)NC(=O)NC(=O)CN1CCCCC1	-8	·	-2	3	-1	-6	-2	i
COc1ccc(C2(O)CCN(C(=O)c3ccc4c(c3)OCO4)CC2)cc1	-4	-11	5	16	14	3	-2	i
C#CCOCCOCCOCCNc1nc(N2CCN(C(=O)[C@H](Cc3ccc(O)cc3)n3cc([C@@H](N)C(C)CC)nn3)CC2)nc(N2CCN(C(=O)[C@H](Cc3cc4ccccc4[nH]3)n3cc([C@@H](N)Cc4ccc(O)cc4)nn3)CC2)n1 (some centres undefined)	-5	·	·	·	·	24	14	i
Nc1ccc(C(=O)c2ccc3c(c2)OCCO3)cc1N	·	-11	3	-3	·	·	·	i
CS(=O)(=O)Nc1cccc(C2=NN(C(=O)c3cccc(F)c3)C(c3cccs3)C2)c1 (centres undefined)	14	-15	2	-2	33	4	2	i
CCOC(=O)/C(C#N)=C\c1ccc(N2CCN(C/C=C/c3ccccc3)CC2)cc1	20	·	-14	-17	-2	?	3	i
COc1ccccc1-c1cc(NC(C)=O)c2ncc(-c3ccc(S(C)(=O)=O)cc3)n2c1	·	-10	-6	5	15	·	·	·
O=C(COC(=O)c1ccc(F)c(S(=O)(=O)N2CCOCC2)c1)NC1CC1	5	-8	1	1	-6	·	·	·
CCN1C(=O)c2ccc(C(=O)NCc3ccc4c(c3)OCO4)cc2C1=O	-5	-12	4	5	-2	5	1	i
COc1ccc(C2CC(c3ccc4ccccc4c3)=NN2C(=O)CSc2ncccn2)cc1 (centres undefined)	14	-10	-14	-10	-46	-7	1	i
Cc1n[nH]c(C)c1S(=O)(=O)N(CC(=O)N1CCc2ccccc21)c1ccc(C(C)C)cc1	-8	-24	-11	-12	21	-1	-3	i
COc1cccc(-c2nnc(SCC(N)=O)n2-c2ccc(Cl)cc2)c1	8	-10	2	-1	·	-3	3	i
O=C(Nc1ccccc1)N1CCCN(c2ccc(C(F)(F)F)cc2[N+](=O)[O-])CC1	-7	-2	4	-6	47	-3	1	i
Nc1nc2n(n1)C(c1cccs1)CC(c1ccccc1)N2 (centres undefined)	-10	-19	-9	3	·	-6	3	i
Cc1ccc(/C(O)=C2/C(=O)C(=O)N(c3ccccn3)C2c2ccc(F)cc2)cc1 (centres undefined)	7	-7	-5	-4	0	0	11	i
Cc1cc(NC(=O)CC(F)(F)F)n(-c2ccccc2)n1	-3	13	2	6	18	-6	4	i
COc1cc(NS(=O)(=O)c2ccc(NC(=S)NC(=O)c3ccccc3)cc2)nc(OC)n1	-5	-9	-1	1	-4	4	9	i
CC(C)OC(=O)CSc1nnc(-c2cccnc2)n1Cc1ccccc1	-9	-4	5	7	-4	2	8	i
C=CCOc1ccc(C(c2c(C)n(C)n(-c3ccccc3)c2=O)c2c(C)n(C)n(-c3ccccc3)c2=O)cc1	-1	18	2	0	0	2	1	i
O=C(N/N=C/c1ccco1)c1ccc(NC(=O)C2CC2)cc1	·	-45	0	5	-18	8	2	i
COc1ccc(CNC(=O)Cc2csc(NC(=O)Nc3ccccc3OC)n2)cc1	·	-11	5	-6	2	·	·	i
CCC(=O)N1c2ccccc2NC2=C(C(=O)CCC2)C1c1ccccc1 (centres undefined)	-7	-39	0	-2	·	-4	-5	i

Looked up one by one from above (2):
SMILES	CSC inhib	Yeast UUG start	MT1-MMP act inh	MT1-MMP act inh RFP	Env fusion inh	eIF4H inh	PABP polyA inh	Rce1 inhib
COc1ccccc1-c1cc(NC(C)=O)c2ncc(-c3ccc(S(C)(=O)=O)cc3)n2c1	·	-10	-6	5	15	·	·	·
O=C(COC(=O)c1ccc(F)c(S(=O)(=O)N2CCOCC2)c1)NC1CC1	5	-8	1	1	-6	·	·	·

Next part:
SMILES	CSC inhib	Yeast UUG start	MT1-MMP act inh	MT1-MMP act inh RFP	Env fusion inh	eIF4H inh	PABP polyA inh	Rce1 inhib
COc1ccc(-n2cnc3cc(NCc4cccs4)ccc32)cc1	1	-22	5	4	·	-10	3	i
COc1ccc(OC2C(=O)N(c3ccc(C)c(C)c3)C2c2ccc(OC)c(OC)c2)cc1 (centres undefined)	19	3	-8	-8	38	-4	-7	i
O=C(c1cc(F)c(F)cc1Cl)N1CCOCC1	-13	-7	2	4	-129	-3	-4	i
Cc1nc2ccccc2c2oc(C(=O)N3CCC(C)CC3)cc12	-19	-8	-3	-6	-12	-11	13	i
O=C(Cn1c(=O)oc2ccc(Cl)cc21)Nc1ccon1	-23	-6	0	3	-8	-11	4	i
CNC(=O)NC(=O)CSc1cccc(C(F)(F)F)c1	-17	1	3	-2	·	11	-6	i
O=C(Oc1ccc(Br)cc1)c1cccc(S(=O)(=O)N2CCOCC2)c1	8	-7	-1	1	6	1	4	i
O=Cc1cc(Br)c(OC(=O)N2CCOCC2)c(Br)c1	-22	-15	0	-1	3	-4	-7	i
O=C1c2ccccc2C(=O)C1c1ccccc1F	1	-13	2	2	-1	-2	2	i
CCOC(=O)[C@H]1[C@H]2COc3ccc(OC)cc3[C@@H]2N2C(=O)c3ccccc3NC(=O)[C@@]12C	10	4	-6	0	-82	·	·	·
C/C(CCC(C)C)=N\NS(=O)(=O)c1ccc(C)c([N+](=O)[O-])c1	3	-9	-3	-1	3	-2	-3	i
c1ccc(N2N=C(c3cccs3)CC2c2ccco2)cc1 (centres undefined)	62	-18	3	-2	·	-2	-5	i
O=C(NCc1cccc(CNC(=O)C(=O)NCC2CCCO2)c1)C(=O)NCC1CCCO1 (centres undefined)	-4	·	-2	1	0	-2	3	i
NC(=O)Nc1cc(Cl)ccc1Cl	-11	·	2	5	-6	0	8	i
CCN(CC)S(=O)(=O)c1cccc(-c2csc(C)n2)c1	3	·	0	1	3	3	-15	i
O=C(O)c1ccc(N2C(=O)c3ccc(C(=O)c4cccc([N+](=O)[O-])c4)cc3C2=O)cc1	-18	·	3	7	23	1	11	i
Cc1ccc(C2=NN(C(=O)CN3CCN(C4CCS(=O)(=O)C4)CC3)C(c3ccco3)C2)cc1 (centres undefined)	-11	9	5	6	1	·	·	·
CC(C)COC(=O)c1ccccc1OC(=O)c1ccncc1	-3	·	3	5	9	-16	-13	i
COc1ccc(Cc2nnnn2CC(=O)O)cc1	-25	-8	2	4	·	-9	7	i
Cc1nc(NC(=O)C2CC2)sc1C	2	-11	7	5	5	-3	-1	i
CSc1ccc(CN(C)C(C)C(=O)NCc2ccccc2)cc1 (centres undefined)	0	-11	-3	-2	13	-5	2	i
COc1ccc(-c2n[nH]c(=S)n2-c2ccccc2C)cc1	-26	-14	3	8	-20	-7	-3	i
Cc1ccc(C(=O)CCC(=O)N2CCN(c3ccc(F)cc3)CC2)cc1	4	-7	7	-3	8	-2	-8	i
O=C(CCc1ccccc1)NCc1ccncc1	-6	-3	0	2	-9	-9	-6	i
Cc1nnc(SCC(=O)NCc2ccco2)n1Cc1ccccc1	-10	-13	9	1	·	-4	11	i
Other compounds follow:
SMILES	CSC inhib	Yeast UUG start	MT1-MMP act inh	MT1-MMP act inh RFP	Env fusion inh	eIF4H inh	PABP polyA inh	Rce1 inhib
Cc1cccc(CN2C(=O)NC(c3ccccc3)(c3ccccc3)C2=O)c1	17	2	-4	-5	9	10	3	i
CC1=C(C(=O)N(C)C)CC(CC(=O)NCCCN(C)C)C(=O)N1CCCN1CCCC1=O (centres undefined)	·	104*	1	5	0	·	·	·
COc1ccc(-n2c(COc3cccc(C)c3)n[nH]c2=S)cc1	-8	-25	2	0	2	-3	-6	i
C/C=C/c1ccc(OCCOCCOc2cccc3cccnc23)c(OC)c1	27	·	-1	-4	13	-1	1	i
COc1ccc(CNC(=O)CN(C)S(=O)(=O)c2ccc3c(c2)n(C)c(=O)c(=O)n3C)cc1	-5	4	-1	4	-2	6	12	i
Cc1ccc(NC(=O)[C@@H]2CCCN2C(=O)c2cccs2)cc1S(=O)(=O)N1CCCCC1	·	10	2	2	-16	·	·	·
CCCNC(=O)C1(C)CCN(C(=O)c2c(Cl)cccc2Cl)C1 (centres undefined)	·	-13	5	7	21	·	·	·
O=C(Cn1nnc(-c2ccc3c(c2)OCO3)n1)NCc1ccco1	-5	-2	1	13	-53	12	2	i
O=C(N/N=C/c1ccc(Cl)c([N+](=O)[O-])c1)c1cnccn1	-18	·	0	1	-14	6	-20	i
C/C(CC(=O)Nc1ccc(F)cc1)=N\NC(=O)c1ccccn1	-14	-36	-3	-1	3	15	3	i
COc1ccc2oc(C(=O)OCC(=O)NCCc3ccc(S(N)(=O)=O)cc3)c(C)c2c1	-11	-8	3	-4	0	·	·	·
CC(C)CN(C(=O)COC(=O)c1ccc2c(c1)OCCO2)c1c(N)n(Cc2ccccc2)c(=O)[nH]c1=O	-7	·	1	0	-6	·	·	i
CCOC(=O)c1c(C)nc2c(c1-c1ccc(Cl)cc1)C(=O)CC(C)(C)C2	?	·	-1	-1	·	1	2	i
S=C(NCCc1ccccc1)N1CCc2ccccc2C1	11	·	2	-6	1	5	-8	i
COCCN(CC(=O)Nc1cccc(C)c1C)C(=O)Cn1cnc2ccccc2c1=O	·	-10	0	-1	4	·	·	·
Cn1c(=O)c2cc(NC(=O)Nc3ccccc3)ccc2n1Cc1ccccc1	·	-14	0	4	-23	·	·	·
COc1ccccc1-c1csc(NC(=O)c2ccc(N3C(=O)CCC3=O)cc2)n1	·	·	-2	-11	?	-6	9	i
CC1NC(=O)N(C)[C@@H]2NC(=O)N(C)C(c3ccc([N+](=O)[O-])cc3)[C@@H]12 (some centres undefined)	-6	21	-3	7	-10	-10	-9	i
O=C(Nc1ccccc1C(=O)N1CCOCC1)c1ccc(Cl)cc1	-21	·	0	-1	0	1	10	i
CCOC(=O)c1c(NC(=O)CSc2nc(C)cc(C)c2C#N)sc(C(C)=O)c1C	16	-14	-1	-1	-137	-10	6	i
Cc1noc(NS(=O)(=O)c2ccc(N/C=C/C(=O)c3cccnc3)cc2)c1C	-4	-9	3	0	·	15	-8	i
O=C1NC(c2ccco2)Nc2ccccc21 (centres undefined)	-15	-8	2	2	·	-9	4	i
CCCCCCCCCC(=O)N1c2ccccc2NC(=O)C1CC(=O)Nc1ccc(C(=O)O)cc1 (centres undefined)	-7	-18	5	0	6	7	9	i
Cc1ccc(-c2cc(C(F)(F)F)n3ncc(C(=O)N4CCN(C)CC4)c3n2)cc1	-10	2	3	2	·	-1	-18	i
OC(c1ccccc1)c1nc(-c2cccc(F)c2)cs1 (centres undefined)	·	-18	-1	-1	12	·	·	·
(continued)
SMILES	CSC inhib	Yeast UUG start	MT1-MMP act inh	MT1-MMP act inh RFP	Env fusion inh	eIF4H inh	PABP polyA inh	Rce1 inhib
CCOC(=O)CCCn1ncn2c(cc3occc32)c1=O	-5	-12	-4	1	-57	-2	1	i
COCCNC(=S)Nc1ccc2nc(N3CCCC3)cc(C)c2c1	7	-7	0	4	·	33	6	i
CCCCNCc1ccc(OCc2ccc(Cl)nc2)c(OC)c1	-6	-15	5	3	7	8	0	i
Cc1ccc(S(=O)(=O)N(CC(=O)Nc2cccnc2)c2ccccc2C)cc1	11	-1	0	-1	-12	12	2	·
CCOC(=O)CC[C@H](NC(=O)Cn1cnc2c(SC)nc(N)nc21)C(=O)OCC	·	-9	2	4	-61	·	·	·
Cc1nc(Nc2ccc(Br)cc2Br)c([N+](=O)[O-])c(=O)[nH]1	-11	-17	1	0	-16	·	·	i
